# LT uptake inh: qHTS Assay for Anthrax Lethal Toxin Internalization | actives 0.67% (n = 70,000) | Cells, anthrax lethal toxin internalization, FRET ratio (460/530) | AID 912, 2007 | Potency, µM (titrated, usually from 40 µM), without a hit: top-dose activity change, negative = inhibition, usual class: inhibitors; active = well fitted falling ratio curve with the 530 nm signal flat; inconclusive = other ratio curves, or a change in one channel alone; inactive = flat curves in the ratio and both channels; the % refers to the ratio; further: on the % scale 0 is the no-effect control and ±100 the full control effect; nearly all actives have a fitted effect of over 50% in size; tested in ME-180 cells; beta-lactamase reporter
# Prx2 Sm inh: Schistosoma Mansoni Peroxiredoxins (Prx2) | S. mansoni Prx2 activity coupled to TGR/GSH (TGR is thioredoxin glutathione reductase), NADPH fluorescence loss, qHTS; some inactives read as strong as hits | Schistosoma mansoni peroxiredoxin 2 (Prx2) | actives 0.07% (n = 65,000) | Potency, µM; active means full or partial inhibition curve with a strong effect at the top dose; inconclusive means weaker partial or single-point curve; inactive means no accepted curve; further: series up to 57 µM; many of its hits are not listed in these tables
#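 Activity is read as the drop in NADPH fluorescence (365/450 nm), recorded every 30 sec for 8 min after H2O2 addition. Prx2 is coupled to TGR-driven NADPH oxidation through glutathione, in phosphate buffer pH 7.4.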
# * hit, by the source's call; ? = inconclusive; . = no result given; [ ] = another dose, or the depositor's remark. Potency means the concentration at half of the fitted maximal effect. This is a subset (hit frequency here may not be typical).
SMILES,LT uptake inh,Prx2 Sm inh
Cc1ccc(-n2nnnc2SCC(=O)Nc2ccc3c(c2)COC3=O)cc1C,.,>57
Cc1nn(Cc2ccc(Cl)cc2)c(C)c1NC(=O)c1noc2c1CCCCC2,?,>57
CCOC(=O)c1c(NC(=O)Cn2nnc3ccccc32)sc2c1CCC(C)C2 (centres undefined),?,>57
COC(=O)c1ccc(OC)c(CSc2nnc(-c3ccc(C)cc3)o2)c1,-17%,>57
Cc1cc(C(=O)NCc2cccnc2)n(-c2ccccc2)n1,-5%,>57
COc1ccccc1OC(=O)C1CC(=O)N(c2ccc(Cl)cc2)C1 (centres undefined),7%,.
Cn1c(C(C#N)C(=O)Cc2cccc3ccccc23)nc2ccccc21 (centres undefined),-7%,>57
NC(=O)C1CCN(CC(=O)c2c[nH]c3ccc(F)cc23)CC1,2%,>57
CCOC(=O)C1CCCN(C(=O)CC(C)c2ccccc2)C1 (centres undefined),-5%,>57
O=C(C1CCC(=O)N1C1CCCCC1)N1CCN(c2ccc(F)cc2)CC1 (centres undefined),16%,>57
Cc1ccc(N(CC(=O)O)S(C)(=O)=O)cc1Cl,7%,>57
N#CN(CC(N)=O)c1nc(N2CCCCC2)nc(N2CCCCC2)n1,-3%,>57
CCN(CC)S(=O)(=O)c1ccc2c3c(cccc13)C(=O)N2,8%,>57
O=C(Cc1ccc(Cl)cc1)Nc1ccc(N2CCN(C(=O)c3ccco3)CC2)c(Cl)c1,?,>57
c1ccc(-c2nnc(SCc3nc4ccccc4[nH]3)n2Cc2ccco2)nc1,-19%,>57
CCOC(=O)c1sc(NC(=O)CSc2ccccn2)c(C#N)c1C,-13%,>57
N=C(N)SCc1cc(Cl)cc(Cl)c1O,-7%[8 µM],>57
COC(=O)c1ccc2c(=O)n(CCC3=CCCCC3)c(SCC(=O)N3CCCC3)nc2c1,.,>57
CC(=O)NC(NC(C)=O)c1ccc(Br)cc1,2%,>57
CCn1c(SCC(=O)Nc2cccc(OC)c2)nnc1-c1ccc(Cl)cc1,.,>57
CCN(CC)CCCN1C(=O)C(O)=C(C(C)=O)C1c1ccc(OC)cc1OC (centres undefined),-3%,>57
CCOC(=O)C1CCN(C(=O)CNS(=O)(=O)c2cccs2)CC1,1%,>57
O=C(COC(=O)c1cnccn1)c1ccc2c(c1)CCCC2,-10%,>57
O=C(COc1ccc(S(=O)(=O)NCc2ccccc2)cc1)NCC1CCCO1 (centres undefined),-9%,>57

# 2 entries drawn at random from the list so far, as already listed:
SMILES,LT uptake inh,Prx2 Sm inh
c1ccc(-c2nnc(SCc3nc4ccccc4[nH]3)n2Cc2ccco2)nc1,-19%,>57
CCn1c(SCC(=O)Nc2cccc(OC)c2)nnc1-c1ccc(Cl)cc1,.,>57

# Continuation:
SMILES,LT uptake inh,Prx2 Sm inh
Cc1ccc(NCc2nnc3n2CCCCC3)cc1,11%,>57
Clc1cccc(N2CCN(CCNc3nc4ccccc4n4cnnc34)CC2)c1,11%,>57
C=CCNS(=O)(=O)c1ncnc2nc[nH]c12,1%[8 µM],>57
Cn1c(SCC(=O)N2CCOCC2)nnc1-c1cccc(NC(=O)c2ccccc2)c1,0%,>57
CCc1nnc(NC(=O)CSc2nnc(Cc3ccc(OC)cc3)o2)s1,2%,>57
Cc1ccc(NC(=O)c2ccco2)cc1NC(=O)CSc1nnc(-c2cccs2)n1C,1%,>57
c1ccc(-c2cc3c(-n4cccc4)ncnc3o2)cc1,-2%,>57
CCc1c(C)sc(NC(=O)c2cc(C)on2)c1C#N,-3%,>57
CC(C)COC(=O)Cc1c(O)c2ccccc2[nH]c1=O,2%,.
CCC(=O)Nc1cc(C(=O)NCC2CCCN2CC)c(OC)cc1N(C)C (centres undefined),-6%,>57
O=c1c2ccccc2c(C=Nc2ccc(Cl)cn2)c(O)n1-c1cc(Cl)ccc1N1CCOCC1,-3%,>57
Cc1csc(NC(=O)C2CCCN(S(=O)(=O)c3cnc[nH]3)C2)n1 (centres undefined),14%,>57
CC(C)C(NC(=O)CNC(=O)OC(C)(C)C)C(=O)NCc1ccccc1 (centres undefined),2%,>57
CCN(CC)S(=O)(=O)c1ccc(C(=O)N2CCN=C2SC)cc1,-2%,>57
CC(NC(=O)c1cccs1)c1ccc2c(c1)OCO2 (centres undefined),-6%,>57
CCCn1c(-c2ccc(F)cc2)nc2c(NCC(C)(C)CN(C)C)nc(C)nc21,-9%,.
COc1ccc(-n2nnnc2SCC(N)=O)cc1,1%,>57
CN(C)c1ncc2nc(-c3ccccc3)c(=O)n(C3CC3)c2n1,?,>57
Cc1ccc(-c2ccc(=O)n(CC(=O)N3CCN(c4cccc(C)c4)C(C)C3)n2)cc1 (centres undefined),-5%,>57
Cc1ccc(-n2nc(C)c3cc(C(=O)O)sc32)cc1,4%,.
Cc1noc(/C=C/N(C)C)c1S(=O)(=O)N1CCCC(C(=O)NC(C)c2ccccc2)C1 (centres undefined),4%,>57
C=CCc1cc(/C=N/n2cnnc2)cc(OCC)c1O,4%,>57
O=C(O)CC(C(=O)O)c1cn(Cc2ccccc2)c2ccccc12 (centres undefined),0%,>57
CCOC(=O)N1CCN(C2CC(=O)N(c3ccc(F)cc3)C2=O)CC1 (centres undefined),-3%,>57
Cc1ccc2[nH]c(=O)c(CN(CCc3ccccc3)C(c3nnnn3Cc3ccco3)C(C)C)cc2c1 (centres undefined),?,>57
Cc1ncc([N+](=O)[O-])n1CCO,-6%,>57
CC(=O)c1cccc(S(=O)(=O)N2CCC(n3nnc4cc(F)ccc43)CC2)c1,4%,>57
CCOc1cc(C(=O)NC)cc(OCC)c1OCC,?,>57
O=C(CSc1ncnc2c1oc1ccccc12)NCc1ccco1,?,>57
O=C(O)CC(Cn1cnnn1)c1ccccc1 (centres undefined),-2%,>57
C=CCN(C(=O)Cn1c(C(=O)OC)cc2oc(C)cc21)c1ccccc1,-14%,>57
Cc1ccc(-n2c(SCC(=O)NC3CCCCC3)nc3c(c2=O)SCC3)cc1,14%,>57
O=C(c1ccc2nc(N3CCCCC3)sc2c1)N1CCN(Cc2ccc3c(c2)OCO3)CC1,-27%,>57
CCC(C)NS(=O)(=O)c1ccc(OCC(=O)NCc2ccc3c(c2)OCO3)cc1 (centres undefined),-9%,>57
COC1=C[C@H]2C3=C([C@H]2C1=O)[C@H](NC(C)=O)CCc1cc(OC)c(OC)c(OC)c13,6%[3.58 µM],>57
COc1ccc(C(=O)NCc2cn3cccc(C)c3n2)cc1OC,16%,>57
Nc1nc2ccccc2[nH]1,-7%,.
COc1ccc(S(=O)(=O)NCCSCc2cccs2)cc1,3%,>57
O=C(O)[C@@H](Cc1c[nH]c2ccccc12)C(=O)NO,-5%[8 µM],>57
O=C1c2ccccc2-c2ncnc3cccc1c23,-4%,>57
Cc1cc(C)n(-c2nc3nonc3nc2-n2nc(C)cc2C)n1,-5%,>57
Cc1cc(=O)n2nc(N3CCC(C(=O)N4CCN(C)CC4)CC3)sc2n1,5%,>57
O=C(O)CSc1nc2ccccc2o1,7%,>57
COc1ccc(N(CC(=O)NCc2ccccc2OC)S(=O)(=O)c2c(C)nn(C)c2C)cc1,0%,>57
N[C@@]1(C(=O)O)CN[C@H](C(=O)O)C1,-10%,>57
CCN(C(=O)c1cc2cc(OC)ccc2oc1=O)c1ccccc1,?,>57
CN1CCN(c2cc(-c3ccoc3)ncn2)CC1,-18%,>57
Cn1c(C(=O)OC(C(=O)NC2CCCC2)c2cccnc2)cc2sccc21 (centres undefined),-11%,>57
COc1ccc(N2CCN(c3ccc(NC(=O)C4CCCCC4)cc3C#N)CC2)cc1,-6%,>57
COc1ccc(S(=O)(=O)Nc2ccccc2C(=O)NC(C)C)cc1OC,-15%,>57
CCOC(=O)C(C)Oc1cccc2c(=O)n(CC(=O)N3CCN(C(=O)OCC)CC3)ccc12 (centres undefined),6%,>57
COc1ccc2[nH]cc(C3=CCNCC3)c2c1,-46%,>57
CCOC(=O)c1cnc(Nc2nc3ccccc3o2)nc1CSc1nnc(C)s1,7%,>57
CCCCCOc1ccc(N2C(=O)CC(N(O)c3ccccc3)C2=O)cc1 (centres undefined),.,>57
Cc1cc(C)nc(SCCC(=O)N2CCOCC2)n1,5%,>57
Cn1cccc1Cc1nnc(SCC(=O)Nc2ccc3c(c2)OCO3)n1-c1ccc(F)cc1,-12%,>57
O=C(Oc1ccccc1)N1CCC2(CC1)CCN(c1ccccc1)CC2,-21%,>57
COc1ccc(N(CC(=O)N2CCCCC2)S(=O)(=O)c2ccccc2)c(OC)c1,5%,>57
CC(C)c1ccc(-c2nc(N3CCOCC3)[nH]c(=O)c2C#N)cc1,3%,>57
CC(C)N(Cc1nc(-c2ccccc2)no1)C(=O)COc1ccccc1,?,>57

# The list goes on; it opens with the four that closed the last part.
SMILES,LT uptake inh,Prx2 Sm inh
O=C(Oc1ccccc1)N1CCC2(CC1)CCN(c1ccccc1)CC2,-21%,>57
COc1ccc(N(CC(=O)N2CCCCC2)S(=O)(=O)c2ccccc2)c(OC)c1,5%,>57
CC(C)c1ccc(-c2nc(N3CCOCC3)[nH]c(=O)c2C#N)cc1,3%,>57
CC(C)N(Cc1nc(-c2ccccc2)no1)C(=O)COc1ccccc1,?,>57
COc1cccc(-c2cc(NCc3ccccc3)ncn2)c1,1%,>57
COc1ccc(-c2nc(CCNC(=O)c3ccco3)cs2)cc1OC,-14%,>57
CCc1ccc2nc(NC(=O)c3ccc4c(=O)[nH]c(CN5CCOCC5)nc4c3)sc2c1,-26%,>57
Cc1ccc(S(=O)(=O)Cn2nnnc2C(c2ccc(F)cc2)N2CCCCC2)cc1 (centres undefined),-1%,>57
CCS(=O)(=O)Nc1c(C(=O)O)[nH]c2ccccc12,5%,>57
O=C(OCC#CCSc1nnc(-c2ccc(Br)cc2)o1)c1ccco1,-8%,>57
CCOC(=O)c1ccccc1NC(=O)CC(C)CC(=O)O (centres undefined),-5%,>57
CCCCOC(=O)N1CCOCCOCCN(C(=O)OCCCC)CCOCCOCC1,.,>57
O=C(CCCCCn1c(=S)[nH]c2ccccc2c1=O)N1CCC2(CC1)OCCO2,11%,>57
c1cncc(CSc2nnc(-c3cccnc3)n2Cc2ccco2)c1,-1%,>57
c1ccc(-c2cnnc(SCc3cn4cccnc4n3)n2)cc1,5%,>57
N#CCCn1c(=O)c(CCc2ccccc2)nc2cnc(Oc3ccccc3)nc21,?,>57

# Full records from above.
# Results for `Cc1ccc(S(=O)(=O)Cn2nnnc2C(c2ccc(F)cc2)N2CCCCC2)cc1` (centres undefined) → LT uptake inh: -1%; Prx2 Sm inh: >57
# Results for `COc1ccc2[nH]cc(C3=CCNCC3)c2c1` → LT uptake inh: -46%; Prx2 Sm inh: >57
# Results for `CCN(CC)S(=O)(=O)c1ccc2c3c(cccc13)C(=O)N2` → LT uptake inh: 8%; Prx2 Sm inh: >57

# Next part.
SMILES,LT uptake inh,Prx2 Sm inh
COc1ccc(NC(=O)N2CC3(CCN(C(=O)c4cc(C(F)(F)F)cc(C(F)(F)F)c4)CC3)C2)cc1,-13%,.
CCN(CC)c1ccc(/C=N/n2c(C)cc(C)cc2=O)cc1,-8%,>57
O=C1C(Cl)=C(NCCCN2CCOCC2)C(=O)N1CCc1ccccc1,-4%,>57
COC(=O)C1=C(CN2CCc3ccccc32)NC(=O)NC1c1cc(C)ccc1C (centres undefined),-23%,>57
C=CCn1c(SCC(=O)NCc2ccco2)nc2sc3c(c2c1=O)CCCCC3,6%,>57
CC(NC(=O)c1cccs1)C(c1cccs1)N1CCN(Cc2ccccc2)CC1 (centres undefined),-14%,>57
COC(=O)C1=C(C)N(C)C(=O)NC1c1cc(Cl)cc(Cl)c1OC (centres undefined),5%,>57
c1cc2ccc3cccc4ccc(c1)c2c34,?,.
Cn1c(=O)c(-c2ccc(Cl)cc2)nc2cnc(Oc3ccccc3)nc21,?,>57
COc1ccc(NC(=O)NCCN2CCc3ccccc3C2)cc1,-8%,>57
CCC(C)(C)NC(=O)C(c1ccco1)N(C(=O)Cn1nnc2ccccc21)c1ccc2c(c1)OCO2 (centres undefined),-1%,>57
Nc1nnc(SCc2ccccc2Cl)s1,0%,>57
COc1ccc(OC)c(NC(=O)C2CC(C)=C(C)CC2C(=O)O)c1 (centres undefined),-22%,>57
Cc1ccc(CSc2nnnn2C)cc1,6%,>57
Cc1nc(NS(=O)(=O)c2cccs2)c2c3c(sc2n1)CCC3,?,>57
CC1CCc2cc(F)ccc2N1C(=O)c1ccc2c(c1)OCO2 (centres undefined),-20%,>57
COCCNc1ccnc(-c2ccccc2C(F)(F)F)n1,15%,>57
CCCNC(=O)CS(=O)Cc1nc(-c2cccc(OC)c2)oc1C (centres undefined),4%,>57
Cc1c(NC(=O)c2ccc3c(c2)OCO3)cccc1-c1nc2ccccc2o1,-14%,>57
C=CCSc1nc2c(c(=O)[nH]c(=O)n2C)n1CC,-1%,>57

# High-throughput results deposited in PubChem BioAssay by National Center for Advancing Translational Sciences (NCATS).
